BmaI1 enzyme = BmaI1 acyl-homoserine lactone synthase inhibition – biochemical, fluorescence intensity, with counterscreen (AID 720554) | 12,000 tested, 0.4% active | BmaI1 enzyme assay, fluorescence intensity; active compounds read high; test concentration not given here; a few actives read low; strong numbers were not always called active | inhibition, %;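 active = both replicates within 2 robust z-scores of the inhibited control and a quiet counterscreen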;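 also: 0% = uninhibited enzyme and 100% = inhibited control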
BmaI1 enzyme counterscreen = second read-out of BmaI1 enzyme, no call of its own (marks repeat the call); inhibition, %; measured here: counterscreen; design of the counterscreen not given here;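 first of two replicates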
Starred values were filed as active, the others as inactive.

Structure,BmaI1 enzyme,BmaI1 enzyme counterscreen
CC(C)Cn1c(SCC(=O)NC2CC2)nnc1-c1ccccc1F,-3,-7
Cc1ccc(NC(=O)c2c(Cl)nc3sccn23)cc1NC(=O)c1c(Cl)nc2sccn12,8,-1
CSc1ncccc1C(=O)OCc1cc(=O)n2cc(C)ccc2n1,-6,-4
O=C(OCc1nnc(-c2ccccc2)o1)C1CCN(C(=O)c2ccc(Cl)cc2)CC1,12,6
O=C(O)C1(NS(=O)(=O)c2ccc(F)cc2)CCCCC1,9,4
CCn1c(-c2ccccc2)c(C(=O)COC(=O)/C=C/c2ccco2)c2ccccc21,7,1
O=C(CC1CCCC1)Nc1cc2c(cc1Br)OCCO2,9,9
Cc1cccc(-n2[nH]nnc2=S)c1C,12,2
Cc1ccsc1C(=CCCN1CCC[C@@H](C(=O)O)C1)c1sccc1C,12,4
CN(C)C(=S)SCC(=O)N1CCN(S(=O)(=O)c2ccc3ccccc3c2)CC1,8,-2
CNC(=S)NCc1ccc(C(=O)OC)cc1,12,12
N#C/C(=C(/O)CSc1ncn[nH]1)c1nc2ccccc2[nH]1,12,48
Cc1noc(C)c1/C=C/C(=O)NNc1c(F)c(F)c(F)c(F)c1F,26,8
O=C(CSc1n[nH]c(-c2ccccc2)n1)c1ccc(S(=O)(=O)N2CCCC2)cc1,36,30
CN(C)S(=O)(=O)c1ccc(SCc2cc3c(cc2Br)OCO3)nc1,24,0
CCOC(=O)/C(=N\Nc1cccc(C(F)(F)F)c1)N(C)C1CCS(=O)(=O)C1 (centres undefined),43,12
O=C1CSC(=O)N1CCN=Cc1c(O)n(-c2ccc(Cl)cn2)c(=O)c2ccccc12,16,20
O=C(OCCCn1c(=O)[nH]c2ccccc21)c1ccc2c(c1)S(=O)(=O)c1ccccc1C2=O,4,-4
FC(F)(F)c1ccc(Nc2ccc3c(c2)CCC3)nc1,14,16
O=C1NC(=NC2CCCC2)S/C1=C\c1ccc(-c2ccc(F)cc2)o1,17,6
CN1CC(=O)N(CN2CCN(S(=O)(=O)c3ccccc3C#N)CC2)C1=O,-17,-8
O=c1cc(CN2CCN(S(=O)(=O)/C=C/c3ccccc3)CC2)nc2sccn12,4,-2
CCOc1ccc(OCC(=O)Oc2ccc3c(c2)OCO3)cc1,76,36
CCCn1c(=O)c2ccccc2n2c(SC(C)C(=O)Nc3ccc(Cl)cn3)nnc12 (centres undefined),24,15
Cc1ccc(-c2cc(NC(=O)CNC(C)c3ccc(F)cc3F)on2)cc1 (centres undefined),15,4
O=C(Cc1cn2ccsc2n1)N/N=C1\CCCCc2ccccc21,17,-2
COc1ccc([C@@H]2Sc3ccccc3N(CCN(C)C)C(=O)[C@@H]2OC(C)=O)cc1,12,19
CCCN1CCN(c2nc(-c3cccs3)nc3ccccc23)CC1,8,8
O=C(NCCc1c[nH]c2ccccc12)C1CC(=O)N(Cc2ccco2)C1 (centres undefined),10,5
CCC1Cc2c(nc3c4c(nc(N5CCOCC5)c(C#N)c24)NC2(CCCCC2)N3)O1 (centres undefined),20,10
OC(CNCC1COc2ccccc2O1)COC1CCCc2ccccc21 (centres undefined),9,4
CN1CCCN(C(=O)c2ccc(S(=O)(=O)N3CCCCC3)cc2)c2nc3ccccc3nc21,18,6
O=C(COC(=O)c1c2c(nc3ccccc13)CCC2)Nc1ccc2c(c1)OCCO2,16,6
COC(=O)c1ccc(COC(=O)Cn2c(C)csc2=O)o1,14,3
O=C(Cc1c(Cl)cccc1Cl)N1CCN(S(=O)(=O)c2cccs2)CC1,-4,-6
CC1=C(/C=C/C(C)=C/C=C/C(C)=C/C(=O)O)C(C)(C)CCC1,-3,-2
O=C(CSc1nnc(-c2ccc(F)cc2)o1)N(Cc1nnc(-c2ccc(Cl)cc2)o1)C1CC1,4,0
COc1ccc(S(=O)(=O)N(C)CCc2ccc(OC)c(OC)c2)cc1,8,0
CC(C)(CNC(=O)CSc1ccc(F)cc1)N1CCOCC1,28,2
COc1cc2c(cc1OC)CN(Cc1cc(=O)oc3c(C)c(C)ccc13)CC2,4,4
CC(C)CNC(=O)[C@@H]1CCCN1C(=O)c1cccs1,8,10
O=S1(=O)N=C(N2CCN(S(=O)(=O)c3cccs3)CC2)c2ccccc21,12,6
O=C(/C=C/c1ccco1)OCC(=O)N1CCCc2ccccc21,10,1
Cc1ccsc1/C=N/n1cnc2scc(-c3cccs3)c2c1=O,26,-2
CSc1ccc(/C=C/C(=O)N2CCC(C(N)=O)CC2)cc1,16,13
Cc1cc(C)cc(C(=O)OCC(=O)c2c(N)n(C)c(=O)n(C)c2=O)c1,-4,-2
N#C/C(=N\Nc1ccc(S(N)(=O)=O)cc1)C(=O)Nc1ccc(S(N)(=O)=O)cc1,-8,-4
O=C(NCC1COc2ccccc2O1)c1ccc2c(c1)OCCO2 (centres undefined),26,13
Cc1cc(C(=O)Cn2cnc3sc4c(c3c2=O)CCC(C)C4)c(C)n1Cc1ccco1 (centres undefined),22,28
O=C(CO/N=C/c1ccco1)NCc1ccccc1,8,4
Cc1nn(-c2ccccc2)c(C)c1C(=O)OCc1cccc(S(=O)(=O)N(C)C)c1,16,6
Cc1nn(-c2ccccc2)c(C)c1SCC(=O)O,8,8
CC1CCCCC1NC(=O)COC(=O)c1ccc2c(c1)NC(=O)CS2 (centres undefined),12,10
COc1ccc(OCCOC(=O)c2n[nH]c3ccccc23)cc1,6,0
O=C1CN(C(=O)Cc2c(Cl)cccc2Cl)CCN1,-5,-2
C=CCN1C(=O)c2ccc(C(=O)OCc3nc4cc(C(=O)OC)ccc4c(=O)[nH]3)cc2C1=O,6,-2
CCOc1cc(CN2CCN(CC(=O)N3CC(C)CC(C)C3)CC2)cc(Br)c1OC (centres undefined),14,4
C=CCN(CC(=O)Nc1ccc2c(c1)OCO2)S(=O)(=O)c1ccccc1F,22,14
CC(C)NC(=S)Nc1cccc2cnccc12,-16,-1
CN1CCC(N(C)CC(O)COC2CCCc3ccccc32)CC1 (centres undefined),14,3

Part of the list above in a different format.
> Cc1nn(-c2ccccc2)c(C)c1SCC(=O)O
  BmaI1 enzyme = 8
  BmaI1 enzyme counterscreen = 8
> O=C1CN(C(=O)Cc2c(Cl)cccc2Cl)CCN1
  BmaI1 enzyme = -5
  BmaI1 enzyme counterscreen = -2
> CC(C)NC(=S)Nc1cccc2cnccc12
  BmaI1 enzyme = -16
  BmaI1 enzyme counterscreen = -1
> Cc1nn(-c2ccccc2)c(C)c1C(=O)OCc1cccc(S(=O)(=O)N(C)C)c1
  BmaI1 enzyme = 16
  BmaI1 enzyme counterscreen = 6

(continued)
Structure,BmaI1 enzyme,BmaI1 enzyme counterscreen
Cc1nc(Cc2nnc(SCC(=O)c3ccc4c(c3)NC(=O)CO4)o2)cs1,0,7
CC1(C)C[C@@H]1C(=O)N/C(=C\CCCCSC[C@H](N)C(=O)O)C(=O)O,10,2
COC(=O)c1ccccc1S(=O)(=O)N1CCC(C(=O)Nc2nnc(C)o2)CC1,0,-7
O=C(CSc1ncc(-c2ccc(Br)cc2)[nH]1)N(Cc1ccco1)CC(F)(F)F,8,-3
NC(=O)C1CCCN(C(=O)CCCSc2nc3ccccc3s2)C1 (centres undefined),18,-2
O=C(COC(=O)c1ccc(-c2nnc(-c3ccccc3)o2)cc1)c1ccc(F)cc1,14,10
Cc1[nH]c(=O)c(C#N)c(C)c1CCC(=O)N1C(=NCc2ccccc2)SCC1(C)C,4,-2
CCS(=O)(=O)c1ccc(O)c(N=Cc2ccc(C)o2)c1,77,26
C=CCn1c(SCC(=O)c2cccs2)nc2scc(-c3ccccc3)c2c1=O,21,18
O=C(N/N=C/c1ccsc1)C1CC1,9,6
Cc1sc2ncn(CC(=O)N(C)Cc3ccc(Br)s3)c(=O)c2c1C,21,12
CC(C)NC(=S)N=Nc1c(O)n(C)c2ccccc12,12,8
CC1CCC2(CC1)NC(=O)N(Nc1ccc(S(=O)(=O)N3CCCC3)cn1)C2=O (centres undefined),29,-3
Cc1ccc2c(CC(=O)N(C)Cc3nc4ccccc4c(=O)[nH]3)coc2c1,2,-2
O=C(c1ccc2c(c1)OCCO2)N(c1ccccn1)C1CCCCC1,12,6
c1ccc(-c2cc(N3CCCC3)nc3cc4c(cc23)OCCO4)cc1,4,0
CCOC(=O)c1c(-c2ccco2)csc1NC(=O)COC(=O)Cn1[nH]c(=O)c2ccccc2c1=O,30,-2
Cc1nnc(SC(C)C(=O)Nc2ccc(Cl)cn2)s1 (centres undefined),-4,2
CCCN1CCN(Cc2ccc(OCC(=O)Nc3ccc(Br)cc3)c(OC)c2)CC1,33,4
COC(=O)c1[nH]c(=O)c2ccccc2c1OCc1ccccc1,6,2
N#CCSc1nc2c(n1-c1ccccc1)CCCC2,0,-19
O=C(CSc1nnc(C2CC2)n1Cc1ccco1)c1cccc(Cl)c1,9,11
CN(C)S(=O)(=O)c1ccc(C(=O)Nc2c(C#N)oc3ccccc23)cc1,14,20
O=S(=O)(c1ccc(NCCOc2ccccc2)nc1)N1CCCC1,14,4
CC1CCCC(C)N1C(=O)COC(=O)c1ccc(NS(=O)(=O)c2ccc3c(c2)OCCO3)cc1 (centres undefined),12,4
Cc1cc(C(=O)COC(=O)Cc2n[nH]c(=O)c3ccccc23)c(C)n1-c1ccc2c(c1)OCO2,20,6
COc1cc(C(=O)COC(=O)CSc2nc3ccccc3o2)ccc1OC(F)F,7,0
CCN(CC)S(=O)(=O)c1ccc(Sc2nncs2)nc1,6,-9
Cc1csc(NC(=O)CSc2ccccc2)n1,18,2
O=C(O)CNC(=O)c1ccc(CO)cc1,13,16
COc1ccc(C(=O)N/N=C2\CCc3ccccc32)cc1OC,9,8
Cc1ccc(NC(=O)COC(=O)CSC2CCS(=O)(=O)C2)cc1C (centres undefined),10,2
OC(CNCC1COc2ccccc2O1)COc1ccccc1F (centres undefined),8,2
CC(C)Cn1[nH]nnc1=S,44,8
CCN(C(=O)c1cnn(-c2ccccc2)n1)c1nc2c(C)cccc2s1,10,10
CN(C)c1cccc(C(=O)NCC(c2cccs2)N(C)C)c1 (centres undefined),-50,-8
Cc1[nH]c2ccccc2c1C(=O)C(C)Sc1nnc(-c2ccccc2)o1 (centres undefined),0,0
O=C(NC1=NCCS1)c1ccc(S(=O)(=O)N2CCc3ccccc3C2)cc1,-8,-6
CCOc1ncccc1C(=O)Nc1ccnn1C(=O)c1cccnc1OCC,7,0
COc1ccc(CN2C(=O)C3CC=CCC3C2=O)cc1F (centres undefined),4,3
CC1(C)NC(=O)N(CCC#N)C1=O,4,14
COc1c(N2C[C@@H]3CCCN[C@@H]3C2)c(F)cc2c(=O)c(C(=O)O)cn(C3CC3)c12,1,-12
Cc1cc(C(=O)COc2ccccc2C(N)=O)c(C)n1C1CC1,8,12
COC(=O)c1ccc(CN2c3cccc4cccc(c34)S2(=O)=O)o1,12,4
N/N=c1\nc2[nH]n(-c3ccccc3)c(=O)c2c2n1CCC2,45,26
O=C(NN(c1ccccc1)c1ccccc1)c1ccc(S(=O)(=O)N2CCOCC2)cc1,17,-37
Cc1cccc(NC(=O)c2ccccn2)c1,13,8
Cc1noc(C)c1COC(=O)C(Cc1ccccc1)NC(=O)c1cccs1 (centres undefined),16,15

Part of the list above in a different format:
SMILES: Cc1noc(C)c1COC(=O)C(Cc1ccccc1)NC(=O)c1cccs1 (centres undefined)
  BmaI1 enzyme: 16
  BmaI1 enzyme counterscreen: 15
SMILES: Cc1cc(C(=O)COc2ccccc2C(N)=O)c(C)n1C1CC1
  BmaI1 enzyme: 8
  BmaI1 enzyme counterscreen: 12
SMILES: Cc1[nH]c2ccccc2c1C(=O)C(C)Sc1nnc(-c2ccccc2)o1 (centres undefined)
  BmaI1 enzyme: 0
  BmaI1 enzyme counterscreen: 0
SMILES: COC(=O)c1ccc(CN2c3cccc4cccc(c34)S2(=O)=O)o1
  BmaI1 enzyme: 12
  BmaI1 enzyme counterscreen: 4

Going on with the list.
Structure,BmaI1 enzyme,BmaI1 enzyme counterscreen
c1ccc(COc2ccc(Oc3ncccn3)cc2)cc1,10,10
COC(=O)C1CCN(c2ncnc3scc(-c4ccccc4)c23)CC1,17,14
Cc1cccc(-c2nn(-c3ccc(F)cc3)cc2C(=O)N2CCN(CCO)CC2)c1,12,10
CC1CCCCC1NC(=O)CO/N=C/c1ccc2c(c1)OCO2 (centres undefined),7,-1
Cc1ccc(S(=O)(=O)Nc2c(C(=O)NCc3ccco3)c3nc4ccccc4nc3n2Cc2ccco2)cc1,29,15
Cc1cc(-c2csc(N)n2)c(C)n1CC1COc2ccccc2O1 (centres undefined),88,52
O=C(NCC(F)(F)F)c1ccc2ccccc2n1,15,7
NC(N)=NC(=O)c1nc(Cl)c(N)nc1N,-6,-2
NC(=O)CSc1nc(N)nc(N)n1,19,14
Cc1ccc(Nc2nc(N)nc(CSc3cc(C)c4ccccc4n3)n2)cc1,6,12
NC(=O)N1CCCC1C(=O)Nc1ccc2c(c1)CCC2 (centres undefined),4,0
O=C1NC(c2ccccc2)(c2ccccc2)C(=O)N1Cc1ncc(-c2ccccc2)o1,18,14
COC(=O)CC1C(=O)NCCN1C(=O)c1ccc(-c2ccccc2)cc1 (centres undefined),2,2
CC(=O)Nc1ccc(SCc2ncc(-c3ccccc3)o2)cc1,13,14
O=S(=O)(Nc1cccc(Cl)c1)c1cccc(-n2cnnn2)c1,11,2
O=C(N/N=C/C1=COCCO1)c1cccnc1,10,-8

High-throughput results deposited in PubChem BioAssay by ICCB-Longwood Screening Facility, Harvard Medical School.

A portion of the library (hit frequency here may not be typical).
